Screens as filed in PubChem BioAssay.
HPGD inh: inhibitors of human 15-hydroxyprostaglandin dehydrogenase (HPGD) | P15428 | purified HPGD, NADH fluorescence kinetic, PGE2 substrate | Potency, µM, for inactives: at the highest dose activity change, negative = inhibition, usual class: inhibitors | actives 4.3% (n = 150,000); active = well fitted inhibition curve with a large enough effect (not every such curve was filed as active); inconclusive = small, poorly fitted or top-dose-only effect, or another doubt; inactive = no such curve, though single readings can be large or run the other way;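 note: top concentration of the series not given in the record; plate controls included wells without enzyme; inactives centre near -10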
Target sequence (P15428 whole entry, looked up): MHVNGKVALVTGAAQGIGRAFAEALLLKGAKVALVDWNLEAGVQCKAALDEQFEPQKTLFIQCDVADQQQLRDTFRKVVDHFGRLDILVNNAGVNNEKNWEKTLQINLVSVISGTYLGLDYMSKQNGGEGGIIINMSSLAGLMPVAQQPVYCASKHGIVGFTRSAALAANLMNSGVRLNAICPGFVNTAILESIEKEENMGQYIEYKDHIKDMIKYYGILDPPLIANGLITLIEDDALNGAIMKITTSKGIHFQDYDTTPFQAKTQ
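NADH formation kinetics: reaction with 30 uM PGE2 and 1 mM NAD+ (final), 20 nM enzyme, Tris-HCl pH 8 with Tween 20, after 15 min compound preincubation at room temperature. Fluorescence change, last versus first of five reads.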
Active calls of the source: *; ? = inconclusive; & = joins results of further samples. % is set by controls: 0 for no effect and ±100 for the full control effect; potency is the fitted concentration of half-maximal effect. Not all compounds are listed; rates above refer to the full screens.

HPGD inh	mol
?	COc1ccc(Nc2ncc3c(n2)CC(c2ccc(OC)cc2)CC3=O)cc1 (stereo not drawn)
-13%	CCOC(=O)c1c(-c2cccc([N+](=O)[O-])c2)csc1NC(=O)C1CC1
-1%	Cn1c(NCc2ccco2)nc2ccccc21
-12%	CC(NC(=O)Nc1ccccc1)C(c1cccs1)N1CCN(C)CC1 (stereo not drawn)
-19%	O=C(NCCNC(=O)c1cc(OCC(F)(F)F)ccc1OCC(F)(F)F)Nc1cccc(C(F)(F)F)c1
20µM*	COC(=O)c1cccc(-n2nnnc2SCC(=O)Nc2nc3c(s2)CCCC3)c1
-5%&-8%	CC[C@H](C)[C@@H](NC(=O)O[C@@H]1C(=O)c2cc(Br)ccc2O[C@H]1c1ccc2c(c1)OCO2)C(=O)OC
0%	Cc1ccc(S(=O)(=O)N(C)CC(=O)NCc2ccncc2)cc1
-8%	Cc1cc(C)n(C(=O)c2cc3ccccc3c(=O)o2)n1
-3%	COc1ccc(NC(=O)COc2ccc(CNCCCN3CCOCC3)cc2OC)cc1
-27%	CCCOc1ccc(C(=O)Nn2c(C)nc3ccccc3c2=O)cc1
8.9µM*	O=C(CCSCc1cccc(Cl)c1)NCCc1ccccc1
-8%	CCOC(=O)CC(=O)Nc1ccc(C)cc1
-10%	COc1ccc2[nH]c(C)c(CCN3C(=O)OC(C)(C)C3(C)O)c2c1 (stereo not drawn)
-13%	COc1ccc(N2C(=O)C3CCCN3C2c2cccc(Br)c2)cc1 (stereo not drawn)
2µM*	CCOc1ccc(C(=O)N2CCCCCC2)cc1
28µM*	c1c2c(cc3sc(N4CCOCC4)nc13)OCO2
-5%	C#CCn1cc[n+](CC(=O)N(C)C)c1
-30%	CC1CCN(CC(=O)Nc2cccc(C(=O)Nc3cccc(C(F)(F)F)c3)c2)CC1
-2%	CCN(CC)S(=O)(=O)c1ccc(NC2c3ccccc3C(=O)N2Cc2ccco2)cc1 (stereo not drawn)
0%	O=C(CC1CCCCC1)Nc1ccccc1-c1ccccc1
-1%	CC(C)NC(=O)Cn1c(SCC(=O)N2CCc3ccccc3C2)nc2ccccc21
?	CCOC(=O)c1cc(-c2ccc(/C=N\n3cnnc3)o2)ccc1Cl
-15%	CC(C)OP(=O)(Nc1cccc2ccccc12)OC(C)C
?	COc1ccc(-c2nc(-c3cccs3)c(-c3cccs3)[nH]2)cc1O
-2%	CCOc1cc(CN2CCN(CCOCCO)CC2)ccc1OC
-10%	O=C(O)c1cccc(CN2C(=O)SC(Nc3ccccc3)C2=O)c1 (stereo not drawn)
-17%	Cc1cc(NCc2ccc3c(c2)OCO3)n2nc(C)nc2n1
-10%	COc1ccc(NC(=S)Nc2ccc(C)c(S(=O)(=O)N3CCCCC3)c2)cc1
-16%	COc1nc(Nc2ccc(C(C)C)cc2)nc(OC)n1
-17%	CCn1c(COc2cccc(OC)c2)nnc1SCC(=O)Nc1ccccc1C(=O)OC
?	CCOc1cccc2sc(=NC(=O)c3ccc(S(=O)(=O)N4CCOCC4)cc3)n(C)c12
-10%	Cc1ccc(C(=O)c2c(NC(=O)c3cccnc3)sc3c2CCCC3)cc1
-9%	Cc1ccc2nc(C)/c(=N\O)c(C)nc2c1
?	CCCn1c(=N)c(C(=O)NCC2CCCO2)cc2c(=O)n3cccc(C)c3nc21 (stereo not drawn)
?	Cc1cccc(-n2ncc3c(NCc4ccccn4)ncnc32)c1
-9%	O=C(Nc1ccc(N2CCOCC2)cc1)C1CCCN(S(=O)(=O)c2cccc(C(F)(F)F)c2)C1 (stereo not drawn)
-6%	COc1cccc(/C=N/Nc2ncnc(N)c2[N+](=O)[O-])c1OC
14µM*	O=C(NCC1CCCO1)c1ccc(N2CCCCC2)nc1 (stereo not drawn)
?	O=C(CC12CC3CC(CC(C3)C1)C2)NC(=S)N1CCCCC1
-8%	CC(=O)Nc1ccc(N2N=C(C)C(N=Nc3ccccc3)C2=O)cc1 (stereo not drawn)
-23%	O=C(c1ccccc1)c1nccc2ccccc12
?	CCSc1nc2c(c(=O)[nH]1)C(c1cccs1)C(C(=O)OC)=C(C)N2 (stereo not drawn)
-10%	Cc1cccc(-c2noc(CN(C)S(=O)(=O)c3cc(Cl)ccc3Cl)n2)c1
-6%	NC(=O)c1ccsc1NC(=O)COC(=O)C1CCCN1C(=O)c1cccs1 (stereo not drawn)
-11%	COc1cc(OC)cc(-c2nnc(SCC(=O)N3CCCC3)o2)c1
?	CN(C(=O)COC(=O)c1ccc(Cl)cc1N)C1CCS(=O)(=O)C1 (stereo not drawn)
-10%	CC1(C)C2CCC1(C)C(NC1=NCCC1)C2 (stereo not drawn)
-8%	NC(=O)C1(N2CCCCC2)CCN(C(=S)Nc2ccccc2)CC1
-16%	c1ccc(Cn2c(CNc3nc4ccccc4n3CCN3CCOCC3)nc3ccccc32)cc1

Next compounds follow:
HPGD inh	mol
-10%	COc1ccc(Cn2c(C)cc3c(c2=O)C(c2cccs2)C(C#N)=C(N)O3)cc1OC (stereo not drawn)
-3%	COc1ccc(NC(=O)C(NC(=O)c2ccc(=O)[nH]c2)c2ccccc2)cc1 (stereo not drawn)
14µM*	CC(Oc1ccc(Cl)cc1Cl)C(=O)NC1CCSC1=O (stereo not drawn)
-20%	COc1ccc(-n2ncc3c(NCCCN4CCOCC4)ncnc32)cc1
0%	CC(C)OCCCNC(=O)c1cc2c(s1)CS(=O)(=O)C2
-3%	CCc1sc(N2C(=O)C3C4CCC(C4=C(C)C)C3C2=O)nc1-c1ccccc1 (stereo not drawn)
-16%	Cc1ccc(C)n1N1C(=O)/C(=C\c2ccc(Cl)cc2)SC1=S
-9%	CCN(CC)c1ccc(NC(=O)COC(=O)COc2ccccc2[N+](=O)[O-])cc1
0%	O=C(O)c1ccc([N+]2=Cn3c(nc4ccccc43)C2)cc1
-4%	Cc1sc(N)nc1-c1cccs1
-13%	CCOCCCNC(=O)c1c[nH]c2cc(C)ccc2c1=O
-6%	Cc1cc(N2CCN(Cc3ccc4c(c3)OCO4)CC2)n2ncnc2n1
-19%	CN(CC(=O)NC(=O)NCc1ccccc1)Cc1cccc(Cl)c1Cl
-15%	COC(=O)Cn1ncc2c(C)n(Cc3ccccc3)c(C)c2c1=O
-28%	COCCNC(=O)CS(=O)Cc1nc(-c2ccc(OC)cc2)oc1C (stereo not drawn)
-4%	O=C(COc1ccc(Cl)cc1)NC1CCSC1=O (stereo not drawn)
25µM*	CC(C)C[C@H](N)c1nnc(S(=O)(=O)Cc2ccc(F)cc2)o1
1%	O=C1CC(C(=O)Nc2ccccc2)N=C(N2CCOCC2)N1 (stereo not drawn)
?	Cc1ccc2c(c1)c1c(n2CC(O)CN2C(=O)CNC2=O)C(=O)CCC1 (stereo not drawn)
?	Cc1ccc2[nH]c3c(c2c1)CCCC3=O
3%	Cc1c(C(=O)Nc2c(C)n(C)n(-c3ccccc3)c2=O)oc2ccccc12
7%	Cc1nc(CN2CCN(C(=O)c3ccc(Br)cc3)CC2)cs1
-8%	NC(=O)[C@@H]1CCCNc2c(I)cc([N+](=O)[O-])cc2C(=O)N[C@@H](CO)C(=O)NCC(=O)N1
0%	O=S(=O)(NCc1cn2ccsc2n1)c1ccc(Oc2ccccc2)cc1
-9%	CC(=O)N1C2(C=CC1(C)C(=O)NCc1ccccn1)CCCCC2 (stereo not drawn)
-9%	Cc1ccc2c(c1)-c1c(cnn1CC(=O)O)CO2
-12%	COc1ccc(CCN(C)CCCOc2ccc(S(=O)(=O)c3[nH]c4ccccc4c3C(C)C)cc2)cc1OC
-13%	OCCSc1nc(-c2cccnc2)nc2ccccc12
-11%	CCCCCCCCOC(=O)CCn1[nH]c(=O)c2ccccc2c1=O
?	Cc1cc(C(F)(F)F)nn1-c1nc(-c2ccco2)cc(C(F)(F)F)n1
-29%	CCOc1cc(C2C(C(=O)N3CCCCC3)=C(C)NC3=C2C(=O)CCC3)cc(Br)c1O (stereo not drawn)
-12%	CCOc1ccccc1NC(=O)CN(C)S(=O)(=O)c1cccc2nsnc12
-21%	Cc1c(-c2nnc(-c3ccc(C(F)(F)F)cc3)o2)cnn1-c1ccccc1
-7%	COc1ccc(CNC(=O)c2c(-c3cc(Cl)c(OC)c(Cl)c3)noc2C)cc1
?	O=C(N/N=C/c1ccc2ccccc2c1)c1ccc(COc2ccc3c(c2)CCC3)o1
-15%	COc1ccc(C2CC(c3ccc(C)cc3)Nc3nc(N)nn32)cc1 (stereo not drawn)
25µM*	Cc1cn(-c2ccc(Br)cc2)[nH]c1=O
-7%	COc1cc(OC)c(OC)cc1/C=N/NC(=O)C[n+]1ccccc1
-14%	Fc1ccc(C(c2nnnn2Cc2cccs2)N2CCN(C3CCCCC3)CC2)cc1 (stereo not drawn)
-17%	COc1ccc(-c2nc(N)n[nH]2)cc1
-13%	CC1CCN(CC[S-])CC1.O.O.[Cl][Pt]
-9%	Cc1ccsc1C(C(=O)NC1CCCCC1)N(C(=O)Cc1cccs1)C1CC1 (stereo not drawn)
-7%	Cc1ccc(NC(=O)CN(C)S(=O)(=O)c2ccc(Br)s2)cc1F
-3%	O=CCCCC=O
-13%	COc1ccc2c(Cl)cc(NC(=S)Nc3ccccc3)nc2c1
-9%	COC(=O)c1ccc2c(=O)n(Cc3ccco3)c(SCC(=O)Nc3ccccc3Cl)nc2c1
25µM*	Cc1cc(Br)ccc1SCC(=O)OCC(=O)NCc1ccc2c(c1)OCO2
-10%	COC(=O)[C@H](CCSC)NC(=O)NCCc1ccc(F)cc1
-5%	NC(=O)c1ccc(NC(=O)c2ccccc2S(=O)(=O)c2ccccc2[N+](=O)[O-])cc1
-24%	CCc1ccc(NC(=O)c2cc(C(C)C)on2)cc1

In the list so far, these have a furan ring, fused or not.
HPGD inh	mol
-1%	Cn1c(NCc2ccco2)nc2ccccc21
-2%	CCN(CC)S(=O)(=O)c1ccc(NC2c3ccccc3C(=O)N2Cc2ccco2)cc1 (stereo not drawn)
?	CCOC(=O)c1cc(-c2ccc(/C=N\n3cnnc3)o2)ccc1Cl
3%	Cc1c(C(=O)Nc2c(C)n(C)n(-c3ccccc3)c2=O)oc2ccccc12
?	Cc1cc(C(F)(F)F)nn1-c1nc(-c2ccco2)cc(C(F)(F)F)n1
?	O=C(N/N=C/c1ccc2ccccc2c1)c1ccc(COc2ccc3c(c2)CCC3)o1
-9%	COC(=O)c1ccc2c(=O)n(Cc3ccco3)c(SCC(=O)Nc3ccccc3Cl)nc2c1

(further entries)
HPGD inh	mol
-16%	O=C(NCc1ccccc1)c1ccc(CN2CCOCC2)cc1
-4%	CCn1nnnc1SCC(=O)c1ccc2c(c1)OCCO2
-2%	CSCCC(NS(=O)(=O)c1ccc2c(c1)OCCO2)C(=O)NCCc1ccccn1 (stereo not drawn)
-2%	COC(=O)C(Cc1ccccc1)NC(=O)C12CC3CC(CC(C3)C1)C2 (stereo not drawn)
-5%	CCN(C(=O)CN1CCN(c2ccc(O)cc2)CC1)c1c(N)n(Cc2ccccc2)c(=O)[nH]c1=O
-7%	CCOc1cc(Br)ccc1S(=O)(=O)N1CCC(C(N)=O)CC1
-11%	O=C(CSc1nccn1-c1ncc(C(F)(F)F)cc1Cl)c1ccc(Cl)cc1
-30%	Cc1cc2cc3c(cc2nc1SCC(=O)N1c2ccccc2CC1C)OCO3 (stereo not drawn)
-7%	COc1ccc(OC)c(NC(=O)CN(c2ccc(OC)c(Cl)c2)S(C)(=O)=O)c1
-6%	Cc1noc(NS(=O)(=O)c2ccc(NC(=O)C34CC5CC(C3)CC(n3cnc(Cl)n3)(C5)C4)cc2)c1C
-14%	CCCc1cc(=O)n2[nH]c(Cc3ccccc3)nc2n1
-8%	COc1ccc(N(CC(=O)Nc2ccc3c(c2)OCCO3)S(=O)(=O)c2c(C)noc2C)cc1
-13%	COc1ccc(O/C(=N\S(=O)(=O)c2ccccc2)c2ccccc2)cc1
-11%	CCOc1ccccc1NC(=O)c1ccc(F)c(S(=O)(=O)N2CCC3(CC2)OCCO3)c1
-5%	COC(=O)Cc1cc(=O)n(-c2nc3ccccc3[nH]2)[nH]1
-21%	COC(=O)COc1ccc(-c2nn(C)c(=O)c3ccccc23)cc1
-9%	CC(=O)C1C(c2ccccc2OC(F)F)NC(=O)NC1(O)C(F)(F)F (stereo not drawn)
-8%	CCCCCCCC(=O)NNC(=O)Cc1ccccc1
-11%	COc1ccccc1N1CCN(CC(=O)c2c(C)n(C)c3ccccc23)CC1
-6%	Cc1ccc(S(=O)(=O)N2CCC(=O)N(C(COCc3ccccc3)C(C)C)CC2)cc1 (stereo not drawn)
-12%	Cc1oc(-c2ccc(Cl)cc2)nc1CN1CCC(C(=O)NCCCN2CCOCC2)CC1
-29%	Cc1ccc2nc(-c3ccc(N4C(=O)CC(N5CCN(CCO)CC5)C4=O)cc3)sc2c1 (stereo not drawn)
-6%	CO/N=C(/CS(=O)c1ccc(Br)cc1)c1ccc(OC)cc1 (stereo not drawn)
-2%	O=C(O)CC[C@H](NC(=O)c1ccccc1C(=O)O)C(=O)O
-11%	CC(C)(C)C1CCC(OCC(O)CN2CCN(Cc3ccccc3)CC2)CC1 (stereo not drawn)

Shown as a hit in HPGD inh (from the list above):
HPGD inh	mol
20µM*	COC(=O)c1cccc(-n2nnnc2SCC(=O)Nc2nc3c(s2)CCCC3)c1
8.9µM*	O=C(CCSCc1cccc(Cl)c1)NCCc1ccccc1
2µM*	CCOc1ccc(C(=O)N2CCCCCC2)cc1
28µM*	c1c2c(cc3sc(N4CCOCC4)nc13)OCO2
14µM*	O=C(NCC1CCCO1)c1ccc(N2CCCCC2)nc1 (stereo not drawn)
14µM*	CC(Oc1ccc(Cl)cc1Cl)C(=O)NC1CCSC1=O (stereo not drawn)
25µM*	CC(C)C[C@H](N)c1nnc(S(=O)(=O)Cc2ccc(F)cc2)o1
25µM*	Cc1cn(-c2ccc(Br)cc2)[nH]c1=O
25µM*	Cc1cc(Br)ccc1SCC(=O)OCC(=O)NCc1ccc2c(c1)OCO2
